Screening results: PubChem, several laboratories
rRNA inh HTS = selective bacterial rRNA inhibition in E. coli. E. coli WT GFP vs humanized-ribosome RFP mutants, fluorescence, 24 h; stronger effect = lower value; DMSO median 0, no signal -100. GFP signal change (wild-type ribosome), % (concentration not given with the values). hit rate 1.6% among 350,000;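 active means significant combined selectivity score with lowered wild-type GFP, culture density cut under 30%, mutant RFP and density less affected; inactive means any of these conditions unmet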; further: one replicate is shown; some compounds called inactive have numbers as strong as hits
T cruzi repl = blocks replication of Trypanosoma cruzi. T. cruzi beta-gal in NIH3T3, luminescence, 90 h. inhibition, % (concentration not given with the values). hit rate 1.4% among 300,000. AID 1885;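 active means mean inhibition across valid replicates above about 55%, limit read from the data; inconclusive means mean below that limit but half or more replicates reach it; inactive means mean below it, under half of replicates reach it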;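 further: signal also drops with host cell toxicity which is not excluded here; 0% = plate median of DMSO wells and 100% = zero luminescence signal; higher percent means less beta-gal luminescence so fewer parasites; stock transfer was 50 nL into about 50 µL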
RanGTP-Impb inh = disruptors of Ran-importin-beta complex formation – biochemical, FRET, CFP-Ran, YFP-importin-beta, homogeneous, primary screen; hit rate 1.1% among 300,000; cell-free CFP-Ran/YFP-importin-beta FRET ratio; inhibition, % (test concentration not listed);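 active means most replicates above 15%; inconclusive means exactly half above 15%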;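 further: 0% = DMSO wells and 100% = Ran loaded with GDP instead of GTP; wells of about 40 µL received 100 nL stock; the first replicate is given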
Beta apoptosis = blocks beta cell apoptosis. INS-1E cytokine-induced death, ATP luminescence, 48 h; percent of positive-control rescue, neutral wells zero. protection from apoptosis, % (concentration not given with the values). hit rate 0.8% among 300,000. AID 435005;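 active means all replicates at 75% or more, or half of them and the mean; inconclusive means half reach 75% but not the mean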;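 further: 0% = cytokine-treated negative control wells and 100% = positive control rescue; higher means more ATP so stronger rescue from cytokine killing; wells of about 40 µL received 100 nL stock; the first replicate is given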
Calb FLC = affects C. albicans growth with fluconazole; C. albicans CaCi-2 (fluconazole-resistant clinical isolate) + fluconazole, Alamar Blue growth, 48 h; growth inhibition, % (concentration not given with the values); hit rate 0.57% among 300,000; AID 1979;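 active means most replicates above 75%; inconclusive means exactly half above 75%; inactive means most below 75%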;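 further: all wells also contain fluconazole at 8 µg/ml as a sub-toxic cotreatment; 0% = median of DMSO wells and 100% = median of geldanamycin control wells; wells of about 8 µL received 7.5 nL stock; the first replicate is given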
MLL AF4-AF9 inh = inhibitors of human MLL-AF4/AF9 interaction | P42568 | AlphaScreen, biotin-AF4 peptide binding to FLAG-AF9 | inhibition, % at 10 µM | hit rate 0.47% among 350,000;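 active means every replicate reaching a set inhibition limit, whatever the replicate mean, cut at about 25% in these data; inconclusive means mean inhibition reaches that limit but some replicates miss it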;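 further: 0% = plate neutral control median and 100% = total signal loss; the record names both 10 and 1 µM as test concentration; the first replicate is given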
Target sequence (P42568 whole entry, looked up): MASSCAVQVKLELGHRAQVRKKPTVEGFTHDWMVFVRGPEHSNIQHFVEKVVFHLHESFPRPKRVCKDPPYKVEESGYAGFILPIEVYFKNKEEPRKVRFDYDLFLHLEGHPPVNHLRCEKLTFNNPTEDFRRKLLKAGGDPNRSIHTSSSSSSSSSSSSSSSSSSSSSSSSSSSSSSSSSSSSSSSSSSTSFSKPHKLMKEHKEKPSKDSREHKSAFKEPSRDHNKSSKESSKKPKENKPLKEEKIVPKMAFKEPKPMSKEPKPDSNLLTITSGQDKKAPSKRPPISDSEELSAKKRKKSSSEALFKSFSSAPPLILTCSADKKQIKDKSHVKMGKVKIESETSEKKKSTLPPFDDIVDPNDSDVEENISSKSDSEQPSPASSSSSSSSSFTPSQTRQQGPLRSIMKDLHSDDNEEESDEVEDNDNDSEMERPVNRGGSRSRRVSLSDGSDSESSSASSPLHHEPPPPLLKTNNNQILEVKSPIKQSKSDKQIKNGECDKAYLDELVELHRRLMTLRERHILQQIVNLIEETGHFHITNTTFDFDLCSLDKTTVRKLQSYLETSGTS
A1 inh = inhibitors of the anti-apoptotic protein A1, read as caspase activation; MEF A1-2A-BIM cells, Caspase-Glo 3/7 luminescence, 3 h; percent of clofoctol response, vehicle zero; caspase activation, % (test concentration not listed); hit rate 0.066% among 330,000; AID 2462;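 active means over half of replicate activation scores above 10%, or exactly half above 10 with the replicate mean above 10; inconclusive means replicate mean below 10 yet half the replicates above 10; inactive means over half of replicates below 10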;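 further: wells of about 30 µL received 50 nL stock; many hits fall short of the cut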
Vif A3G = inhibitors of Vif binding to APOBEC3G peptide, primary screen, biochemical, TR-FRET, GST-Vif 1-94, biotin-A3G peptide, dose response retest (AID 1117319); inhibition, %, or IC50 in µM where a hit was titrated; hit rate 0.57% among 260,000; TR-FRET GST-Vif / biotin-A3G peptide binding; higher % means a stronger effect; test concentration not given here; strong numbers were not always called active;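 active means above the screen mean plus three standard deviations and confirmed in dose response; inconclusive means results disagree or hit not tested in dose response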;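 further: Vif residues 1-94 fused to GST binding biotinylated APOBEC3G peptide 110-148; 0% = full assay without inhibitor and 100% = GST in place of GST-Vif; retest series ran down from 100 µM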
rRNA inh HTS OD600 = further read-out of rRNA inh HTS, marked with its call; OD600 change, %; measured here: OD600 growth;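 optical density of the mix in the first replicate; 0 = DMSO median and -100 = no signal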
rRNA inh HTS RFP = recorded beside rRNA inh HTS, whose call it bears; RFP signal change, %; measured here: RFP humanized mutant strains;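 first replicate; 0 = DMSO median and -100 = no signal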
* = called active by the depositor; ? = inconclusive; . = no result given; & = joins results of further samples. The list is partial. The share of hits here may be higher or lower than overall.

structure	A1 inh	RanGTP-Impb inh	MLL AF4-AF9 inh	Vif A3G	rRNA inh HTS	Beta apoptosis	Calb FLC	rRNA inh HTS OD600	T cruzi repl	rRNA inh HTS RFP
O=C(CNC(=O)c1ccco1)Nc1ccncc1	0.3	2.1	1.4	1%	6	-4	8	6	-15	1.3
CN(CCCNC(=O)c1cn(C)c2ccc(S(=O)(=O)N(C)C)cc2c1=O)c1ccccc1	-0.8	8.1	2.0	0%&5%	-4	2	-1	-6	20	-0.8
COc1ccc(C2=NOC(C(=O)N3CCCCCC3)C2)cc1OC (centres undefined)	0.9	-1.9	0.3	2%	-3	-1	5	-8	6	-4.1
Cc1ccc2c(c1)N(CC(=O)NC1CCCC(C)C1C)C(=O)c1cccnc1O2 (centres undefined)	-1.4	-3.1	-0.8	.	-9	3	-7	-40	-5	-5.2
Cn1c2ccccc2c2cnn(CC(=O)N3CCCCC3)c(=O)c21	1.0	-3.6	-14	-1%	0	-2	-1	-3	21	-0.5
COc1ccc(CCNC(=O)C2(C)CCC(=O)N2Cc2ccc(F)cc2Cl)cc1OC (centres undefined)	2.4	-7.0	-1.6	4%	-3	-4	0	6	-2	-4.0
CC(=O)c1cccc(NC(=O)C2CCCC2)c1	0.0	-0.7	.	10%	.	2	3	.	-15	.
Cc1cc(C)c(S(=O)(=O)CCC(C)C)c(=O)[nH]1	0.0	-1.4	-2.8	-10%	13	-4	21	9	-14	-1.2
COC(=O)/C=C1/N/C(=N\c2nc(C)cc(C)n2)N(c2ccc(Cl)cc2)C1=O	3.0	1.0	.	-1%	.	.	7	.	-7	.
Cn1cnc(S(=O)(=O)NC2CCN(Cc3ccccc3)CC2)c1	-0.5	-0.8	-1.5	.	7	-1	-3	14	-4	-3.7
Cc1ccccc1NC(=O)Cc1nnc(SCc2ccc(Cl)c(Cl)c2)n1C	0.2	?	.	0%	.	-7	-18	.	-3	.
COc1ccc(CC(=O)Nc2nnc(C)s2)cc1	0.8	2.1	.	-7%	.	-1	-3	.	-2	.
COc1cccc(N(CC(=O)Nc2ccc3c(c2)OCO3)S(=O)(=O)c2ccccc2)c1	1.1	-3.4	.	10%	.	4	-11	.	-10	.
O=C(Nc1ccccc1)Nc1nnc(/C=C/c2ccccc2Cl)s1	0.7	0.2	5.7	24%	8	3	8	7	1	2.5
O=C(COC(=O)C12CC3CC(CC(C3)C1)C2)Nc1ncc(Cl)cc1Cl	0.7	2.5	.	-31%	.	-2	-41	.	17	.
CCN(/N=C/c1cccs1)c1cc(=O)n(C)c(=O)[nH]1	-1.0	4.7	.	9%	.	0	0	.	-6	.
S=c1sc2c(N3CCOCC3)ncnc2n1-c1ccccc1	0.3	?	-2.3	4%	5	-3	1	6	6	0.7
Cc1nc(-c2c(C(=O)NNC(=O)Nc3c(C)cccc3C)noc2C)cs1	1.2	-0.4	-5.2	-6%	-1	.	-6	10	-3	-0.6
C[C@H]1CN([C@@H](C)CO)C(=O)Cc2cc(NC(=O)CCC(F)(F)F)ccc2O[C@H]1CN(C)Cc1ccc(C(F)(F)F)cc1	-0.1	.	-0.7	.	0	10	.	-7	.	1.6
Cc1cccc(OC(=O)c2cn(C)nc2C(F)(F)F)c1C	1.3	13	.	2%	.	.	-3	.	-13	.

Compounds listed so far that contain fluorine, in the order listed:
structure	A1 inh	RanGTP-Impb inh	MLL AF4-AF9 inh	Vif A3G	rRNA inh HTS	Beta apoptosis	Calb FLC	rRNA inh HTS OD600	T cruzi repl	rRNA inh HTS RFP
COc1ccc(CCNC(=O)C2(C)CCC(=O)N2Cc2ccc(F)cc2Cl)cc1OC (centres undefined)	2.4	-7.0	-1.6	4%	-3	-4	0	6	-2	-4.0
C[C@H]1CN([C@@H](C)CO)C(=O)Cc2cc(NC(=O)CCC(F)(F)F)ccc2O[C@H]1CN(C)Cc1ccc(C(F)(F)F)cc1	-0.1	.	-0.7	.	0	10	.	-7	.	1.6
Cc1cccc(OC(=O)c2cn(C)nc2C(F)(F)F)c1C	1.3	13	.	2%	.	.	-3	.	-13	.

(list continues)
structure	A1 inh	RanGTP-Impb inh	MLL AF4-AF9 inh	Vif A3G	rRNA inh HTS	Beta apoptosis	Calb FLC	rRNA inh HTS OD600	T cruzi repl	rRNA inh HTS RFP
COc1ccc(CNC(=O)[C@@H](NC(=O)C2CCN(C(=O)[C@@H](N)CCSC)CC2)C(C)C)cc1	-0.9	0.4	-1.1	.	.	-1	-3	.	0	.
COC(=O)Cn1c2ccc(OC)cc2c2nc3ccccc3nc21	1.4	?	.	-1%	.	-3	?	.	-15	.
O=C(O)c1ccc(C2CCCCC2)cn1	1.8	0.6	.	4%	.	-5	33	.	-12	.
CC(C)N(C(=O)COC(=O)CNS(=O)(=O)c1ccccc1F)c1ccccc1	1.0	-0.1	-1.0	-13%	10	-10	-17	7	-6	1.8
O=C(c1ccc(OC2CCN(C(=O)c3cccnc3)CC2)cc1)N1CCCCCC1	-0.1	-1.9	0.3	2%	3	-2	-3	-3	-21	-1.4
O=C(NCc1ccccc1)c1ccco1	-0.1	0.5	.	-4%	.	-1	19	.	-11	.
O=c1cc(CNc2ccc(Br)cc2)nc2sccn12	0.4	-1.5	5.7	-3%	-22	-6	-5	-30	6	6.4
O=C1COc2ccc(C(=O)COC(=O)/C=C/c3cccc(F)c3)cc2N1	-0.1	3.0	12	.	10	4	0	5	-3	3.6
O=c1c2cc(NC(=S)N3CCCC3)ccc2nc2n1CCCCC2	0.5	-7.9	-0.6	?	3	-3	?	6	2	-0.7
CCNS(=O)(=O)c1ccc(CCC(=O)N2CCC(C)CC2)cc1	0.4	1.8	-9.9	.	8	.	2	11	5	-0.2
OCCNCc1cc(Br)ccc1OCc1ccccc1	0.2	2.5	7.5	?	15	-11	0	15	3	3.1
COC(=O)C(NC(=O)C(CC(C)C)NC(=O)C1CCC(C)CC1)C(C)C (centres undefined)	0.4	3.6	.	-4%	.	-3	-5	.	10	.
COc1ccc(CCNc2nc(-c3ccccn3)cs2)cc1OC	-0.4	-0.9	.	.	-9	5	-12	-3	19	1.1
O=c1c(C/C=C/c2ccccc2)c(O)ccn1CCc1c[nH]c2ccccc12	0.1	1.4	0.2	3%	-9	2	-12	-10	18	-5.5
C=CCOC(=O)C1=C(C)NC(=O)NC1c1cn(-c2ccccc2)nc1-c1cccs1 (centres undefined)	2.1	-0.5	.	19%	.	-10	17	.	42	.
O=C(Nc1ccccc1Br)c1ccc(OC(=S)N2CCOCC2)cc1	1.2	-2.3	-0.4	6%	14	.	-13	20	-21	-1.4
O=C(Nc1ccc(Oc2ccccc2)nc1)C1CCN(Cc2cccc(F)c2)CC1	-0.3	4.5	3.1	-6%	1	2	-10	-10	25	3.9
CCOc1ccc(CCNC(=O)CCC(=O)Nc2ccc3nc(N4CCN(C)CC4)cc(C)c3c2)cc1OCC	0.5	6.0	-3.0	-2%	13	-1	-3	8	46	2.3
O=C(Nc1ccc(NC(=O)c2cccs2)cc1Cl)c1ccco1	-9.5	1.1	-0.7	3%	2	1	4	-1	10	-1.5
CCN1C/C(=C/c2sccc2C)c2nc3ccccc3c(C(=O)O)c2C1	0.2	-94	1.7	19%	7	-4	-3	1	2	-0.6
O=C(CC1C[C@H](C(=O)N2CCOCC2)[C@@]2(CCC3CCCC3)c3[nH]c4ccccc4c3CCN2C1=O)NCCN1CCOCC1 (some centres undefined)	0.3	.	2.8	-2%	4	-5	.	0	.	1.5
O=C(CNC(=O)c1ccccc1)NCCCSc1ccccc1	0.1	.	-7.8	-4%	0	-4	.	0	.	2.8
COc1ccc(NCC(=O)N2CCCC2)cc1Cl	-0.6	0.8	1.0	3%	14	-4	9	7	-16	2.7
Cc1cc2cc(OCC(=O)O)ccc2n1C	0.4	2.7	.	18%	.	2	13	.	-25	.
Nc1c(C(=O)NCCN2CCOCC2)c2nc3ccccc3nc2n1CCc1ccccc1F	0.3	93*	.	14%	.	16	23	.	9	.
Cc1ccc(C(=O)OCC(=O)N(C)c2c(N)n(Cc3ccccc3)c(=O)[nH]c2=O)s1	0.6	1.0	-7.5	-1%	8	-6	.	8	-12	0.4
CCOc1c(Br)ccc2c1sc1nc[nH]c(=O)c12	-0.1	3.0	.	-2%	.	0	5	.	-13	.
Cc1ccc(CC(=O)c2ccc(Cl)cc2)cc1	-1.1	3.2	-1.1	-3%	13	-11	15	7	-18	1.7
Cc1ccc(CN(C(=O)C(F)(F)F)C(C(=O)NC2CCCCC2)c2ccco2)cc1 (centres undefined)	0.9	-1.2	.	2%	.	-1	-17	.	18	.
CC(CC(=O)Nc1ccc(F)cc1F)S(=O)(=O)c1ccc2c(c1)NC(=O)CO2 (centres undefined)	1.1	-1.3	-1.2	.	4	0	4	7	6	0.4
O=S(=O)(NCCCN1CCOCC1)c1ccc2c(c1)OCCO2	1.0	-1.0	-2.0	?	16	-5	-24	9	2	2.1
O=C(OCc1cc(=O)oc2cc(O)ccc12)c1cc(S(=O)(=O)N2CCOCC2)ccc1F	0.3	4.1	4.0	-13%	2	-1	.	8	-9	3.2
CC(C)CCN1CCN(Cc2cccc(C(F)(F)F)c2)CC1CCO (centres undefined)	0.7	-2.0	-5.9	-7%	9	1	9	3	44	-3.8
